# VDR inhibitor – vitamin D3 receptor (human) inhibition. AID 504847. VDR-SRC2-3 peptide fluorescence polarization, 2 h. Potency, µM, for the others: max response, negative = inhibition, hits mostly inhibitors. P11473. 0.93% of 400,000 active; active means well fitted inhibition curve with a large enough effect; inconclusive means small, poorly fitted or top-dose-only effect, or another doubt; inactive means no such curve, though single readings can be large or run the other way; further: series mostly up to about 120 µM
# Target sequence (P11473 whole entry, looked up): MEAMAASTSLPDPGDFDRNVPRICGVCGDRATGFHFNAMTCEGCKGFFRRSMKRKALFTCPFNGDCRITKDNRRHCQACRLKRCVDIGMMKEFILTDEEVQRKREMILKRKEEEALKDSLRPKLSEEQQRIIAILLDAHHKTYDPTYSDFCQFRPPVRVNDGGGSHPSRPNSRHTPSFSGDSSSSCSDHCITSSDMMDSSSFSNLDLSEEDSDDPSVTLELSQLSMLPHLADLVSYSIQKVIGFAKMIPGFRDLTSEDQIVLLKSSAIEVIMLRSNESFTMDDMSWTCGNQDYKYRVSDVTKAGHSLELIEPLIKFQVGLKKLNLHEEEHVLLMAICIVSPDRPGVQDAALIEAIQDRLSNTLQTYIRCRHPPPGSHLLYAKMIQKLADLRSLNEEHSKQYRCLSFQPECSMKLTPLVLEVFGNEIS
#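 After 23 nl compound addition and a short centrifugation, plates sat for 2 hours at ambient temperature; polarization of fluorescence then indicated loss of VDR binding to peptide SRC2-3.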
# * marks the source's active call; other numbers are inactive results; ? = inconclusive. On the % scale 0 is the no-effect control and ±100 the full control effect; potency means the concentration at half of the fitted maximal effect. These rows are one share of the data; rates above refer to the full screens.
SMILES	VDR inhibitor
CCCCCCCC[n+]1c(C)n(-c2ccccc2)c2ccc(NC(C)=O)cc21	20.5%
Cc1cc(C)c(NC(=O)OCCN2CCOCC2)c(C)c1	-19.8%
Cc1cc(S(=O)(=O)NCC(C)C)ccc1OCC(=O)NC1CC1	10.7%
COc1ccc2nc3ccccc3nc2c1	?
O=C(Nc1ccccc1)Nc1cccn(Cc2c(F)cccc2Cl)c1=O	6.2%
COc1ccc(S(=O)(=O)NCC2CCCN(Cc3cn(C)nc3C)C2)cc1 (stereo not given)	-16.2%
O=C(c1cccs1)N1CCN(C2CCCCC2)CC1	6.4%
Cc1ccc(CN2C(=O)SC(Nc3ccccc3)C2=O)cc1 (stereo not given)	-7.6%
Nn1c(COc2ccccc2F)nnc1SCC(=O)NC1CCS(=O)(=O)C1 (stereo not given)	-23.7%
CCOc1ccc(C2C(=O)N(C3CCCCC3)CC(=O)N2CCc2ccccc2)cc1OC (stereo not given)	4.6%
Cc1nc(N2CCCC2)c2c(C(=O)Nc3cccc(Cl)c3)c(C)oc2n1	-9.4%
Cc1ccc(OCC(=O)NNC(=O)Cn2c(=O)cnc3ccccc32)cc1	3.4%
CCOC(=O)c1cc(S(=O)(=O)Nc2ccc(Br)c(C)c2)[nH]n1	6.7%
COc1ccc(NC(=O)c2cc(OC)c(OC)c(OC)c2)cc1S(=O)(=O)N1CCCCC1	-14.8%
COC(=O)c1c(NC(C)=O)sc2c1CCCC2	-12.3%
O=C(NNc1ccc(F)cc1F)C1CCC1	-15.2%
O=C(OCC(=O)c1c[nH]c2ccccc12)c1cc2ccccc2cc1O	-14.3%
Cn1c2c(c(=O)n(C)c1=O)CN(CCc1ccccc1)CN2	-2.3%
Cc1ccc(CN2CCN(CC(C)C)C(CCO)C2)s1 (stereo not given)	11.4%
COc1ccc(S(=O)(=O)NCc2cccn2Cc2cccc(C)c2)cc1OC	11.1%
CC(C)Cn1c(SCC(=O)Nc2ccc3[nH]c(=O)[nH]c3c2)nc2ccccc2c1=O	13.2%
CCN(CC)Cc1nc2c(c(=O)[nH]1)C1(CCCCC1)Cc1ccccc1-2	10.3%
CC(=O)c1ccc(N2C(=O)N(CC(=O)c3ccc(F)cc3)c3ccccc3S2(=O)=O)cc1	-4.3%
C/C(=N\N1C(=O)c2ccccc2C1=O)c1cccc([N+](=O)[O-])c1	-10.3%
COc1cccc(C(=O)OCCN2C(=O)c3ccccc3C2=O)c1OC	-11.5%
CCOc1cc(C(=O)NCc2ccco2)cc(OCC)c1OCC	-0.5%
O=C(c1ccc2c(c1)CCCC2)N1CCN(c2nc3c(F)cccc3s2)CC1	11.4%
CCc1ccccc1NC(=O)c1cc(C)no1	4.3%
Cc1cccc(C(=O)Nc2ccnc(-c3cccnc3)n2)c1	-9.7%
COc1cc(OC)cc(C(=O)NC2CCN(Cc3nnnn3Cc3cccs3)CC2)c1	24.1%
Cc1cc(C(=O)N/N=C2\CCCC(C)C2)n[nH]1 (stereo not given)	4.9%
Cc1ccc(C(=O)NCC(=O)OCc2cc(=O)n3nc(C4CCCCC4)sc3n2)cc1	0.0%
COc1cc(C2NC(=S)NC(C)=C2C(=O)OC(C)C)ccc1OC(C)C (stereo not given)	3.1%
Cc1ccc(NS(=O)(=O)c2ccc(C(=O)NCC3CCCO3)cc2)cc1 (stereo not given)	-26.4%
O=C(N/N=C/c1cc(Br)cs1)c1ccc2c(c1)OCCO2	16.3%
Cc1cc(C)c(NC(=O)CS(=O)CC(=O)Nc2ccc(-n3cnnn3)c(C)c2)c(C)c1 (stereo not given)	10.9%
CC(=O)Nc1ccc(NC(=O)CSc2nnc(C3CC3)n2C)cc1	-5.6%
O=S1(=O)CCOCCCN1Cc1ccccc1	7.6%
COc1ccc(Cl)cc1S(=O)(=O)n1ccnc1	-25.1%
CC(=O)Nc1ccc2nc(-c3ccco3)[nH]c2c1	-25.2%
Cc1ccc(NC(=O)c2ccc(S(=O)(=O)N3CCC(C)CC3)cc2)cc1	-3.7%
CCCCn1c(N)c(NCc2ccccc2)c(=O)[nH]c1=O	9.4%
Cc1ccc(-n2nc(C)c3c2OC(N)=C(C#N)C3c2ccc(C)o2)cc1 (stereo not given)	-43.0%
NC(=O)CC(NC(=O)c1ccccc1)c1ccc(NCCCN2CCCC2=O)c([N+](=O)[O-])c1 (stereo not given)	0.6%
Cc1ccccc1C(=O)Nc1ccnn1C1CCN(Cc2ccncc2)CC1	-21.9%
N#Cc1c([N+](=O)[O-])cc([N+](=O)[O-])cc1S(=O)(=O)Cc1ccccc1	39.8µM*
CCc1nnc(NC(=O)CCC(=O)N2CCN(S(=O)(=O)c3ccc(OC)cc3)CC2)s1	-8.5%
CCOC(=O)CNC(=O)N1CCCC(N(C)CCc2ccccc2)C1 (stereo not given)	12.4%
COc1ccc(C)cc1NC(=O)NNC(=O)C(C)Oc1ccc(F)cc1Cl (stereo not given)	12.4%
CSCC[C@H](NC(=O)[C@H](Cc1ccccc1)n1c(=O)[nH]c2ccccc2c1=O)C(=O)NCC1CCC(C(=O)O)CC1 (stereo not given in full)	-22.4%

# Part of the list above, as labelled records.
compound: CCOc1cc(C(=O)NCc2ccco2)cc(OCC)c1OCC
- VDR inhibitor = -0.5%
compound: O=C(c1ccc2c(c1)CCCC2)N1CCN(c2nc3c(F)cccc3s2)CC1
- VDR inhibitor = 11.4%

# New compounds follow
SMILES	VDR inhibitor
CN(C)S(=O)(=O)n1cnc(C(CCO)c2ncn(S(=O)(=O)N(C)C)c2CCCO)c1 (stereo not given)	4.3%
Cc1cccc(NC(=O)CSC2=Nc3ccccc3C3=NC(CCC(=O)NCc4ccc(F)cc4)C(=O)N23)c1 (stereo not given)	9.0%
COc1ccc(-c2cn[nH]c2N)cc1OC	8.3%
CCn1ccnc1CN(C)C(=O)c1cc(COc2c(F)cccc2F)on1	17.8%
O=C(CC1C(=O)N(c2ccc(Cl)cc2)C(=S)N1CCc1ccncc1)Nc1ccc(F)cc1 (stereo not given)	5.8%
NC(=O)c1ccccc1NC(=O)C1CCCN(c2ncnc3onc(-c4ccc(F)cc4)c23)C1 (stereo not given)	0.3%
O=C(COc1cc2oc(=O)c3c(c2cc1Cl)CCC3)NCC1CCC(C(=O)O)CC1 (stereo not given)	0.4%
O=C(c1cccc(Cl)c1)N1CCN(S(=O)(=O)c2ccc(Cl)s2)CC1	-9.8%
CC1(C)C(=O)N(c2ccccc2)C1c1ccccc1O (stereo not given)	1.9%
CCc1nc(SCC(=O)Nc2ccccc2C(=O)OC)n[nH]1	10.6%
COc1ccc(NC(=O)CSc2cc(C)nc3c(-c4ccccc4)cnn23)cc1	-1.1%
CCCS(=O)(=O)N1CCCC(C(=O)N2CCN(c3ccccc3)CC2)C1 (stereo not given)	1.6%
Cc1ccc(C(=O)CSc2nnc(COc3ccc(C#N)cc3)n2-c2ccccc2)cc1	-16.4%
Cn1c(SCC(=O)O)nnc1C1CCCCC1	9.9%
COc1ccc(OC)c(NC(=O)CCn2ccnc2)c1	0.6%
CCOc1ccc(CN2CCN(Cc3cnn(CC)c3C)CC2CCO)cc1 (stereo not given)	-6.3%
COc1ccc(N2CCC(CNC(=S)Nc3cc(C)cc(C)c3)C2)cc1 (stereo not given)	0.2%
CCC(=O)OCC(=O)c1c(N)n(Cc2ccccc2)c(=O)n(C)c1=O	8.9%
Cc1ccc(C)c(S(=O)(=O)N/N=C/c2ccc(N(C)C)cc2)c1	7.9%
Cc1ccc(-n2nc3ccc(N)cc3n2)cc1	-2.1%
CCC(CO)Oc1cc(NCc2ccccc2OC)c2ncn(C(C)C)c2c1 (stereo not given)	-6.4%
CC(C)=C1SC(N2CCN(Cc3ccccc3)CC2)=NC1=O	16.6%
CCOc1ccc(-c2nn(CC(=O)NC3CCCCC3)c3c2cnc2ccc(C)cc23)cc1	3.6%
O=C(CN1C(=O)CCC1=O)Nc1nc(-c2nc3ccccc3s2)cs1	-4.1%
C=CCOc1ccc(CNC(C)(C)C)cc1OC	10.2%
Cc1c(CNC2CCCCC2)c(C(=O)O)c(C)n1Cc1ccc(F)cc1	8.6%
O=C(c1ccc2c(c1)C(=O)N(c1ccc(Cl)cc1)C2=O)N1CCN(c2ccccn2)CC1	-2.3%
COc1ccccc1C(=O)N/C(=C\c1cn(S(=O)(=O)N(C)C)c2ccccc12)C(=O)N1CCCCC1	11.5%
Cc1ccc(S(=O)(=O)N[C@@H](Cc2ccccc2)C(=O)N2CCC(C(=O)N[C@@H](CCC(N)=O)C(=O)O)CC2)cc1	-4.1%
CC12CCC3C(CC3(C)C)C(C)(CCC1=O)O2 (stereo not given)	15.8%
CN(C)C(=O)c1ccc(NS(=O)(=O)c2ccc3c(c2)OCCO3)cc1	1.7%
CN(C)C(=O)CN1CCN(Cc2cn(C)nc2-c2ccc3c(c2)OCCO3)CC1	-7.9%
COc1ccc(-c2cc(=O)oc3c(C)c(O)c(CN(C)C)cc23)cc1	-5.3%
N#Cc1ccc(CN2CCN(C(=O)CNC(=O)Cc3ccccc3)CC2)cc1	1.9%
CCn1nc(C)c(CN2CCCC(C(=O)c3cccc(OC(C)C)c3)C2)c1C (stereo not given)	-10.1%
Cc1ccc(CCn2c3c(c4ccccc42)CN(C)CC3)cn1	3.1%
COc1ccc(S(=O)(=O)Nc2cccc3c2O[C@H](CN(C)S(=O)(=O)c2ccccc2)[C@@H](C)CN([C@H](C)CO)C3=O)cc1	-11.9%
CCC(=O)Nc1ccc(N2CCOCC2)c(S(=O)(=O)Nc2ccc(Cl)cc2)c1	?
O=C(Nc1nccs1)c1cc(-c2ccccc2)nn1-c1ccccc1	-13.0%
Cc1cc(OCC(=O)Nc2nccs2)c2c(C)cc(=O)oc2c1	-5.7%
O=C1N/C(=N\N=C\c2ccco2)SC1Cc1ccc(F)cc1 (stereo not given)	3.5%
CC(=O)NC(=S)Nc1ccc(NC(=O)COc2ccc(C(C)C)cc2)cc1	-11.4%
COc1ccc(Cl)cc1NC(=O)CCS(=O)(=O)c1cccc2nonc12	-14.8%
Clc1ccc2c(N3CCCC3)ccnc2c1	-0.8%
CCCCCC(=O)Nc1nc(C)c(-c2csc(Nc3cc(OC)ccc3OC)n2)s1	-27.6%
O=C(CSc1nnc(-c2ccc(F)cc2)n1-c1ccccc1)NCCN1C(=O)CSC1=O	15.3%
COc1ccc(C)cc1NC(=O)Nc1cnccn1	10.0%
CCOc1ccc(C(=O)/C=C/c2ccccc2C(F)(F)F)cc1	2.5%
CCN(CC(=O)Nc1c(F)cccc1F)C(=O)CCc1ccc(OC)cc1	15.6%
CCOC(=O)C1CCN(C(=O)Cn2cccc2C(=O)c2ccccc2)CC1	13.6%

# A run of entries from the list above:
SMILES	VDR inhibitor
CC(=O)NC(=S)Nc1ccc(NC(=O)COc2ccc(C(C)C)cc2)cc1	-11.4%
COc1ccc(Cl)cc1NC(=O)CCS(=O)(=O)c1cccc2nonc12	-14.8%
Clc1ccc2c(N3CCCC3)ccnc2c1	-0.8%
CCCCCC(=O)Nc1nc(C)c(-c2csc(Nc3cc(OC)ccc3OC)n2)s1	-27.6%

# Later entries
SMILES	VDR inhibitor
O=C(NC1CCCC1)c1cccnc1N1CCCCCC1	-8.4%
CCOC(=O)c1oc2ccccc2c1CSc1nnc(-c2ccco2)o1	7.2%
O=C1C=CC2=C3c4cc(O)c(O)cc4C[C@@]3(O)COC2=C1	11.2µM*
CCOC(=O)C1CCN(C(=O)COC(=O)c2ccc3[nH]c4c(c3c2)CCCC4)CC1	-23.9%
CC1(C)CC(=O)c2cc(OCC(=O)NCCN3CCOCC3)ccc2O1	5.5%
O=C(Nc1ccc(OC(F)(F)F)cc1)Nc1cccnc1	-4.8%
COc1ccc(OCC(=O)Nc2ccccc2C(=O)NC2CC2)cc1	3.9%
COc1cccc(/C=C2/SC(=O)N(C)C2=O)c1OCc1ccc(C(=O)O)cc1	-12.5%
COc1ccccc1C(CNC(=O)c1cc(C)nc2ccccc12)N(C)C (stereo not given)	0.7%
O=C(Nc1ccc(C#Cc2ccccc2)cc1)C1CC1	-11.0%
COc1ccc(-n2c(SCC(=O)NCC3CCCO3)nc3ccccc32)cc1 (stereo not given)	20.1%
Cn1c(=O)cc(OCC(=O)N2CCCc3ccccc32)c2ccccc21	-6.6%
CN(C)S(=O)(=O)c1ccc(C(=O)N2CCN=C2SCc2cccnc2)cc1	-7.4%
O=C(CC(NS(=O)(=O)c1ccc(Cl)cc1)c1ccco1)NCc1cccnc1 (stereo not given)	2.5%
COc1ccc(Cl)cc1NC(=O)CN(C)C(=O)/C=C/c1ccco1	-6.1%
CC1=NN(c2nc(-c3ccc(C)cc3)cs2)C(=O)C1N=Nc1ccccc1O (stereo not given)	13.5%
CC(=O)OC1C(=O)N(Cc2ccccc2)C1c1ccc(C)cc1 (stereo not given)	-17.1%
O=C(CN(Cc1ccccc1)S(=O)(=O)c1ccc2c(c1)OCCO2)N/N=C/c1ccc(F)cc1	-21.3%
CCOC(=O)Nc1ccc2c(c1)N(C(=O)CN1CCN(CCO)CC1)c1ccccc1CC2	-5.1%
O=S(=O)(c1ccccc1)c1ccc(N2CCCCCC2)cc1	-11.0%
Nc1nc(NC(=O)c2ccccc2Cl)nn1-c1ccccc1	9.0%
Cc1[nH][nH]c(=O)c1C=NCc1ccc(Cl)cc1	-3.4%
COc1ccc(CNC(=O)c2cc3c(=O)n4cccc(C)c4nc3s2)cc1	-3.4%
Cc1ccc(C)c(S(=O)(=O)N2CCN(C(=O)C3CCN(C(=O)c4ccc(F)cc4)CC3)CC2)c1	-6.3%
CC(C)c1ccc(-c2nnc3n(CCc4ccccc4)c(=O)c4ccccc4n23)cc1	16.6%

# Screens from PubChem.
